# Screens deposited in PubChem BioAssay by Johns Hopkins Ion Channel Center.
# KCNQ2 pot: potentiators of rat KCNQ2 potassium channel. B-score at 10 µM. CHO-K1 KCNQ2, FluxOR thallium flux fluorescence; active compounds read high. 310,000 tested, 0.54% active. AID 2239. O88943;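 active means fluorescence ratio B-score at least 3 SD of library B-scores, with initial fluorescence B-score within 3 SD, cut at about 5.3 in these data; same plate scores as AID 2156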;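 further: B-score of peak minus minimum over baseline fluorescence ratio after K+ and Tl+ stimulus; positive B-score means potentiation of KCNQ2 with more thallium influx and brighter signal; only the inactives scoring about 0 or higher are listed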
# Target sequence (O88943 whole entry, looked up): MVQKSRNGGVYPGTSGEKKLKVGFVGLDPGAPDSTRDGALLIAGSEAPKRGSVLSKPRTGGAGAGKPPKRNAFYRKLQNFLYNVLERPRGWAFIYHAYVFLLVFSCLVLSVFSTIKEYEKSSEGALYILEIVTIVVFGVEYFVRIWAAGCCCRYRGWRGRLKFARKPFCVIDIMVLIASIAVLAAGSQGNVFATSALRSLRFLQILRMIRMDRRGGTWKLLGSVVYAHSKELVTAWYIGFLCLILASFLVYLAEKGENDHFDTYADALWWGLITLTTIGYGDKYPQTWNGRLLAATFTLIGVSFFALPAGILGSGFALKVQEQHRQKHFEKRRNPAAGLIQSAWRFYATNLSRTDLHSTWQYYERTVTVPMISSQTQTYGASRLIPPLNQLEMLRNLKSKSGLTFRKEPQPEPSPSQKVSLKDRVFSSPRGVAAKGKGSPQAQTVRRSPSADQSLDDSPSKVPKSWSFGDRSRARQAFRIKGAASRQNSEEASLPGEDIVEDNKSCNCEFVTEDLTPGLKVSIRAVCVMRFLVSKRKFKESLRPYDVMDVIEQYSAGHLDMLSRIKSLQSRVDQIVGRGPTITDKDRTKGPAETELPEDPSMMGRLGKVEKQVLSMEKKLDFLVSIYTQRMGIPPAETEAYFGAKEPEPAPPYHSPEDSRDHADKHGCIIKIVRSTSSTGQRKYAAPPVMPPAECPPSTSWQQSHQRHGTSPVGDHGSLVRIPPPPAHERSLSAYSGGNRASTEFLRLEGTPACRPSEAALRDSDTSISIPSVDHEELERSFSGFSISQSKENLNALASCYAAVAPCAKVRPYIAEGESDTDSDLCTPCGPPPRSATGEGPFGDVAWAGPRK
# KCNQ2 pot baseline: second read-out of KCNQ2 pot, no call of its own (marks repeat the call); B-score; compound at 10 µM; measured here: initial fluorescence intensity artifact check;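 brightness before thallium and not channel activity; 0 = typical well and far values either way flag optical interference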
# An asterisk follows results filed as active; nt = no result given. The list is partial, so the mix of outcomes need not match the whole.
# Below each compound: KCNQ2 pot	KCNQ2 pot baseline
O=C(COc1ccccc1)N1CCN(S(=O)(=O)c2ccc(Br)cc2)CC1
    0.31	-1.6
CCOc1ccc(C(=O)Nc2cc(NC(=O)c3ccc(OCC)c(Cl)c3)cc(C(=O)O)c2)cc1Cl
    0.05	-0.08
CCN1C(=O)/C(=C\N(C)C)S/C1=N\S(=O)(=O)c1ccccc1
    1.1	-0.02
CCOc1ccc(S(=O)(=O)NC2CC2)cc1C(N)=O
    1.2	-0.65
COc1cccc(OC)c1OCCCSc1nc(C)cc(=O)[nH]1
    0.76	0.01
O=C(Nc1ccc(Oc2ccccc2)nc1)C1CCCCN1Cc1cccc(O)c1 (stereo not given)
    1.1	1.2
COC(=O)CSc1nnc2c3c4c(sc3nc(-n3nc(C)cc3C)n12)COC(C)(C)C4
    1.5	-0.07
O=C(CNC(=O)N1CC(=O)Nc2ccccc21)Nc1nccs1
    0.56	0.01
CN(C)c1cccc(C(=O)N/N=C/c2ccccc2F)c1
    0.09	0.41
CCCC(=O)NC(=S)Nc1nc(-c2ccc(OC)cc2)cs1
    2	-0.18

# Pulled by structure from above, 3 records:
# Below each compound: KCNQ2 pot	KCNQ2 pot baseline
CCOc1ccc(S(=O)(=O)NC2CC2)cc1C(N)=O
    1.2	-0.65
O=C(COc1ccccc1)N1CCN(S(=O)(=O)c2ccc(Br)cc2)CC1
    0.31	-1.6
CCCC(=O)NC(=S)Nc1nc(-c2ccc(OC)cc2)cs1
    2	-0.18

# (list continues)
# Below each compound: KCNQ2 pot	KCNQ2 pot baseline
CN(C(=O)CSc1nnnn1-c1ccccc1)C1CCCCC1
    0.07	-1.9
CCOCCCNC(=O)C(c1ccc(Cl)cc1)N1CCN(C(=O)c2ccco2)CC1 (stereo not given)
    0.37	-1.3
CC(NS(=O)(=O)c1cn(C)c(=O)n(C)c1=O)c1ccccc1 (stereo not given)
    0.19	1.1
CCOC(=O)NC1(C(F)(F)F)C(=O)NC(C)=C1C#N (stereo not given)
    1	-0.14
O=C(Nc1ccccc1)C1CC(=O)n2c(nc3ccccc32)N1 (stereo not given)
    0.45	1.5
CCOc1ccccc1NC(=S)Nc1ccc(S(N)(=O)=O)cc1
    0.05	0.67
O=C(CN(C(=O)c1csnn1)c1cccc(C(F)(F)F)c1)NC1CCCC1
    1.2	-0.34
N#Cc1c(N)nc2c(c1-c1ccncc1)CCCC2
    0.03	0.57
N#C/C(=C\c1ccc(-c2cccc([N+](=O)[O-])c2)o1)C(=O)N1CCOCC1
    0.08	0.18
CCCCNC(=S)NCCN1CCCCC1
    0.04	-1.4

# Next section:
# Below each compound: KCNQ2 pot	KCNQ2 pot baseline
CC1Sc2ccc(S(=O)(=O)N3CCC(C(=O)NCC(C)c4ccccc4)CC3)cc2NC1=O (stereo not given)
    1	-1.4
COc1ccc(CN2CCN(C(C)C)C(CCO)C2)cc1Cn1cncn1 (stereo not given)
    0.79	0.04
CCOC(=O)CC1C(=O)NCCN1C(=O)Nc1ccccc1 (stereo not given)
    0.32	2.4
Oc1c(Br)cc(C=Nc2ccc3nc(-c4ccccc4)[nH]c3c2)c(O)c1Br
    0.23	-3.5
C[n+]1cnn2c1SCC1(COC1)C2
    0.13	0.01
CC(C)(C)c1ccc(-n2nc(C(N)=O)c(O)cc2=O)cc1
    1.4	-0.98
Cc1csc(C(C)N(C)C(=O)CCc2nnc(CCc3ccccc3)o2)n1 (stereo not given)
    2.8	-1
O=C1CN(C(=O)CN2CCCC2)C(c2ccccc2)c2cc(Br)ccc2N1 (stereo not given)
    0.8	1.9
COc1cccc(OC)c1C(=O)Nc1ccc(C(=O)c2ccncc2)cc1
    1.1	0.98
O=C(c1cccs1)N1CCCC(c2nc3c(nnn3Cc3ccccc3)c(=O)[nH]2)C1 (stereo not given)
    0.1	-0.14

# Continued.
# Below each compound: KCNQ2 pot	KCNQ2 pot baseline
COc1ccc(N2CCN(S(=O)(=O)c3ccc4c(c3)CC(C)N4C(=O)C3CC3)CC2)cc1 (stereo not given)
    1.8	1.9
Cn1cccc1CNC(=S)Nc1ccccc1F
    0.17	1.1
CC(C)NC(=O)CSc1nc2ccccc2n1CC(=O)N(C(C)C)C(C)C
    0.34	2.6
COc1cc(/C=N/n2cnnc2)ccc1OC(=O)c1cccnc1
    0.61	0.03
O=c1[nH]c2ccccc2c2nc3ccccn3c12
    0.14	-1.6
Cc1cccc(S(=O)(=O)Nc2nc3ccccc3nc2NCc2ccc3c(c2)OCO3)c1
    1.5	-0.92
O=C(CN1CCOC1=O)N1CCCC(N2CCN(c3cccc(C(F)(F)F)c3)CC2)C1 (stereo not given)
    0.6	0.97
O=C1N=c2ccccc2=C1c1sc(=S)n(NC(=O)c2cccc(O)c2)c1O
    0.24	-2.8
Cc1cc(OCC(=O)NCCO)ccc1Cl
    0.02	-0.43
Cc1c(N=C2N=C(NC(=O)c3ccc(F)cc3)c3ccccc32)c(=O)n(-c2ccccc2)n1C
    0.26	-0.05

# Additional compounds:
# Below each compound: KCNQ2 pot	KCNQ2 pot baseline
CCc1cc2c(=O)c(-n3cnc4ccccc43)coc2cc1O
    1.7	0.07
COC(=O)c1ncccc1SC
    0.03	-0.12
CCCCCCN1Cc2ccccc2C1
    0.83	-0.15
CC1CCN(c2c([N+](=O)[O-])nn(-c3ccc4c(c3)OCCO4)[n+]2[O-])CC1
    -5.6	nt
CCCN(CCC)C(=O)Cn1c(=O)n(CCCC(=O)NCc2ccco2)c(=O)c2sccc21
    1	0.17
COc1ccc(-n2nnnc2SCC(=O)Nc2nnc(C)s2)cc1
    0.29	-0.02
COc1ccccc1N(CC(O)CN1C(C)CCCC1C)S(=O)(=O)c1ccccc1 (stereo not given)
    1.1	0.05
Nc1c(C(=O)Nn2cnnc2)cc([N+](=O)[O-])cc1[N+](=O)[O-]
    1.2	-0.3
Cc1cccc2cc(C#N)c(NCCNC(=O)NC3CCCCC3)nc12
    0.55	0.03
S=c1[nH]nc(COc2ccc(Cl)cc2)n1-c1ccccc1
    1.2	-0.42

# New compounds follow
# Below each compound: KCNQ2 pot	KCNQ2 pot baseline
Cc1ccc2nc(Cl)c(C3CC(c4cccs4)=NN3C(=O)CCCC(=O)O)cc2c1 (stereo not given)
    1.7	0.64
O=C(C1=C(O)C(=O)N(Cc2ccco2)C1c1cccc(O)c1)c1ccco1 (stereo not given)
    1.2	1.9
Cc1ccc(C(=O)COC(=O)CNS(=O)(=O)c2ccc(C)cc2)cc1
    0.57	0.42
COc1cccc(C(=O)NCCCNC(=O)c2ccccn2)c1
    1.6	-1.1
CCOC(=O)C1CCN(Cc2cc(=O)oc3cc(C)ccc23)CC1
    0.03	-0.31
CCc1ccc(NC(=O)C2C3C=CC(C4CC34)C2C(=O)O)cc1 (stereo not given)
    2.1	-1.2
Cc1c(C(=O)NCCSCc2ccco2)cccc1[N+](=O)[O-]
    0.9	-1.3
O=C(c1ccccc1O)N1N=C(c2ccccc2)CC1(O)C(F)(F)F (stereo not given)
    0.92	-0.18
Cc1ccc2c(c1)N(CCC(=O)NCCN1CCOCC1)C(=O)CO2
    0.07	-1.8
CCOC(=O)c1sc(NC(=O)C(CC)Sc2nc3ccccc3[nH]2)nc1C (stereo not given)
    0.6	2.2

# Continued:
SMILES,KCNQ2 pot,KCNQ2 pot baseline
NNC(=O)C1CC1c1ccccc1 (stereo not given),0.84,-0.32
Cc1ccccc1NS(=O)(=O)c1ccc(C(=O)N2CCN(c3ccccn3)CC2)cc1,1.5,0.41
Cc1cc2c(ncn2C)c(NS(=O)(=O)c2ccc(Cl)cc2)c1C,2,-0.91
N#CC(C#N)=NNc1ccc([N+](=O)[O-])cc1,4.8,-0.01
COc1ccc2oc3cc(C)[n+]([O-])c(-c4ccc(C)cc4)c3c2c1,1.8,0.07
Cc1cc(C(=O)N/N=C/c2ccc(-c3cccc([N+](=O)[O-])c3)o2)n[nH]1,2.7,0.05
Cc1ccccc1OCc1nnc(SCC(=O)Nc2ccc3nc(SCC(=O)Nc4ccccc4)sc3c2)n1C,0.08,-0.08
COC(=O)CSc1c(-c2ccccc2)c2cc(Cl)ccc2[nH]c1=O,0.99,0.02
O=C(O)c1ccccc1-c1ccccc1C(=O)Nc1cccc(-c2nc3ccccc3o2)c1,0.85,-2
CCn1cc(C(=O)OCC(=O)Nc2cccc(C)c2)c(=O)c2ccc(C)nc21,0.14,0.94
CCOC(=O)CSc1nc(C)nc2c1sc1nc(C)c(C(C)=O)c(-c3ccc(OC)cc3)c12,2.5,-1.2
Nc1nnnn1/N=C\c1ccc(Cl)c([N+](=O)[O-])c1,0.53,-0.02

# Entries of single compounds, looked up by structure:
# `Cc1cc2c(ncn2C)c(NS(=O)(=O)c2ccc(Cl)cc2)c1C` is listed with KCNQ2 pot = 2; KCNQ2 pot baseline = -0.91
# `NNC(=O)C1CC1c1ccccc1` (stereo not given) is listed with KCNQ2 pot = 0.84; KCNQ2 pot baseline = -0.32

# Further entries.
SMILES,KCNQ2 pot,KCNQ2 pot baseline
CCCS(=O)(=O)N1CCC(C(=O)N2CCOCC2)CC1,1.3,-1
NS(=O)(=O)c1ccc(CCNCC(=O)NCc2ccccc2Cl)cc1,1.1,0.8
CC(C)NC(=O)c1noc2cc([N+](=O)[O-])ccc12,2.4,-2.3
Cc1nc(NC(=O)c2ccc(Br)o2)sc1C,2.1,0.05
Cc1c(C(c2ccccc2)c2c(C)n(C)n(-c3ccccc3)c2=O)c(=O)n(-c2ccccc2)n1C,0.37,1.5
CC(C)CCc1noc(CN2CCC(CCN3CCCC3=O)CC2)n1,0.03,-1.4
O=C(CSc1nnc(CNC(=O)c2c(F)cccc2Cl)o1)NCc1ccc(F)cc1,0.37,0.87
Cc1cccc(NC(=O)CSc2nnnn2C)n1,0.43,0.71
O=C(COc1ccccc1)N/N=C/c1ccc(O[C@@H]2O[C@H](CO)[C@@H](O)[C@H](O)[C@H]2O)cc1,1.1,2.3
CCOC(=O)C1CCCN(S(=O)(=O)c2cccc3nsnc23)C1 (stereo not given),2.7,-2
Cc1ccsc1CNn1cnnc1SCc1ccccc1F,1,-2
CC(=O)Nc1ccc(NC(=O)CSc2nnc3ccc(-c4ccccn4)nn23)cc1,3.1,-1.3

# Continuation.
SMILES,KCNQ2 pot,KCNQ2 pot baseline
Cn1c2ccccc2c2nnc(SC3CCOC3=O)nc21 (stereo not given),1,0.06
CC(=O)Nc1ccc(/C=C/C(=O)c2ccc3c(c2)OCCO3)cc1,0.03,-2.2
CC(=O)c1c(C)[nH]c(C(=O)Nc2nc(-c3ccc(Cl)cc3)cs2)c1C,0.73,1.4
Cc1ccc(C2(C)NC(=O)N(CC(=O)Nc3ccccc3N3CCCC3)C2=O)cc1 (stereo not given),1.1,0.27
CCOC(=O)c1c(NC(=O)C2C3CCC(O3)C2C(=O)O)sc2c1CCC(CC)C2 (stereo not given),3.2,-1.6
O=C(O)CSc1nc2ccccc2c(=O)[nH]1,1.5,-0.76
Cc1cccc(C)c1Nc1c(-c2ccc(N3CCOCC3)cc2)nc2cnccn12,0.33,-0.31
CCOc1ccc(NC(=O)CN(C)C(=O)c2cc([N+](=O)[O-])ccc2N2CCCCC2)cc1OCC,1.6,0.22
CCCc1cc(-c2nc(N)ncc2-c2ccc3c(c2)OCCCO3)c(O)cc1OC,0.94,0.73
COc1ccc2c(CC(=O)N3CCN(S(=O)(=O)c4cccs4)CC3)coc2c1,0.68,0.02
O=C(NCc1ccccc1)c1cccc(OCC(=O)N2CCN(C(=O)c3ccco3)CC2)c1,0.57,0.02
CC1CCN(CCCNC(=O)CN2C(=O)CSc3ccc(S(=O)(=O)N4CCOCC4)cc32)CC1,0.02,-1.1

# Additional compounds.
SMILES,KCNQ2 pot,KCNQ2 pot baseline
Cc1cccc(C(=O)N2CCCC(c3nc(-c4ccc(C)o4)no3)C2)c1 (stereo not given),0.99,-1.8
N#CCOC(=O)/C=C/c1ccc2c(c1)OCO2,0.12,-0.44
COc1cc(NC(=O)c2cc(S(=O)(=O)N3CCCCC3)c[nH]2)cc(OC)c1,1.2,-2.5
Cc1sc2ncnc(NCC(O)c3ccccc3)c2c1C (stereo not given),1.7,-0.63
Cc1c(CNCCc2ccccc2Cl)c(C(=O)O)c(C)n1-c1ccccc1,0.93,0.68
Cn1ccnc1SCCNC(=O)CCc1nnc(CCCCc2ccccc2)o1,0.18,-3.4
CCOC(=O)c1c(-c2ccc(C)o2)csc1NC(=S)NC(=O)N(C)C,15*,-2.8*
O=C(O)c1ccc(/C=N/NC(=O)c2cc(-c3cccs3)nc3ccccc23)cc1,0.96,-0.46
NC(=O)CCn1c(C(=O)c2cc(Cl)c(N)c(Cl)c2)c2ccccc2[n+]1[O-],0.29,0.85
COc1ccc(/C(N)=N/OC(=O)c2ccco2)cc1OC,0.9,-2
CC(=O)Nc1ccc(S(=O)(=O)NCc2nc(-c3cccc(C)c3)no2)cc1,0.21,0.77
CCOC(=O)Cn1c(=O)oc2cc(S(=O)(=O)NCc3cccs3)ccc21,1.1,-0.04

# Other records follow:
SMILES,KCNQ2 pot,KCNQ2 pot baseline
CCNc1nc(CN2CCOCC2)nc2sc3c(c12)CCC3,0.01,0.03
CC(NC(=O)Cn1nnc(-c2ccncc2)n1)c1ccccc1 (stereo not given),0.82,-0.69
CCC(CC)c1nc2cc(OC)c(OC)cc2c(=O)o1,1.8,-0.93
O=C(Nc1cnccn1)c1ccc(Cl)cc1,0.42,-0.59
Cc1ccc(C2=NS(=O)(=O)N(C)C(C(=O)Nc3ccc4c(c3)OCO4)=C2)cc1,0.53,-0.7
CC1CN(Cc2nc3c(c(=O)n(C)c(=O)n3C)n2CCCO)CC(C)O1 (stereo not given),3,-0.02
CS(=O)(=O)N(CC(=O)NC1CC2CCC1C2)c1ccc(Oc2ccccc2)cc1 (stereo not given),0.26,-0.47
CCOc1ccccc1-n1nnnc1SCC(=O)NCc1ccco1,1.2,0.12

# A few values from above:
# Under KCNQ2 pot baseline, `N#Cc1c(N)nc2c(c1-c1ccncc1)CCCC2` reads 0.57
# Under KCNQ2 pot baseline, `N#CC(C#N)=NNc1ccc([N+](=O)[O-])cc1` reads -0.01
